# From PubChem BioAssay
# CSC inhib = cancer stem cell viability inhibitors, primary screen, luminescence | AID 2717, 2010 | hit rate 1.1% among 300,000 | inhibition, % at 7.5 µM | cancer stem cell-like cells viability;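 active = mean at 75% or more and at least half the replicates too; tested in HMLE shEcad cells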;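 also: 0% = median of negative and 100% = median of positive control wells; the first replicate is given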
# Rce1 inh = yeast Rce1p protease inhibitors, primary screen, biochemical, fluorescence, cell-free homogeneous. CAAX prenyl protease 2 (Saccharomyces cerevisiae (strain ATCC 204508 / S288c)), Q03530. yeast membranes, quenched prenylated peptide cleavage fluorescence. calls only. hit rate 0.27% among 290,000. AID 2563, 2010;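 active = fall in fluorescence gain of 50% or more versus controls, with final raw signal at or below 3038400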;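 also: plate controls were neutral control wells for no effect and wells lacking membranes for full effect; tested at 10 µM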
# Target sequence (Q03530 whole entry, looked up): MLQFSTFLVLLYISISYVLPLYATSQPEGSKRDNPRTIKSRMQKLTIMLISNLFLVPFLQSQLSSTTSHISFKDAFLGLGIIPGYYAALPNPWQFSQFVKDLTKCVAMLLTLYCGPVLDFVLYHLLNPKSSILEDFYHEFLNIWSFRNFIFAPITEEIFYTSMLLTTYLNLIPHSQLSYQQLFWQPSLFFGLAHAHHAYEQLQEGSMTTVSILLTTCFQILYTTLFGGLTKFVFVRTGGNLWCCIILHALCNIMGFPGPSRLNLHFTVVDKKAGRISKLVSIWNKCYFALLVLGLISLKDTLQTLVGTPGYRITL
# MT1-MMP act inh = blockers of MT1-MMP proenzyme processing, primary screen, HT1080 RFP-PRO-GFP cells, GFP/RFP fluorescence | GFP/RFP ratio fluorescence, overnight; percent of plate control window, DMSO zero | GFP/RFP ratio change, % at 20 µM | Matrix metalloproteinase-14 (Homo sapiens), P50281 | AID 651647, 2012 | hit rate 0.061% among 360,000;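 active = GFP/RFP ratio change of at least 30% with cell ATP level not reduced by more than half and red fluorescence within 50% of control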; also: strong numbers were not always called active
#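 Test system: HT1080 cells expressing an RFP-PRO-GFP fluorescent reporter construct / Compound dosing: single-point 20 µM compound, 1% DMSO / Schedule: cells overnight before dosing, compound overnight, 37 °C, 5% CO2 / Evaluation: GFP/RFP fluorescence ratio / Control set: DMSO and RFP-L50D-GFP cell wells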
# HIV Env fusion = inhibitors of HIV-1 Env-driven cell-cell fusion, primary screen, HeLa-JRFL effector, CEM21 target cells, luciferase. inhibition, % at 12.3 µM. hit rate 1.1% among 360,000;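 active = mean replicate inhibition score of at least 50 and every replicate individually at or above 50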;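 also: 0% = plate neutral controls and 100% = maraviroc near 300 nM; one replicate is shown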
# eIF4H FP inh = human eIF4H binding inhibitors, primary screen, translation initiation inhibitor project, biochemical, uHTS, fluorescence polarization; hit rate 0.94% among 290,000; inhibition, % at 35 µM; AID 2012, 2009; eIF4H fluorescence polarization binding assay;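 active = 50% or more with normal probe brightness, or confirmed in later tests; about a fifth of its hits are not listed in these tables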;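 also: calls also rest on retests at 20 µM and on dose response follow-up; 0% = protein and probe with vehicle and 100% = probe without protein; strong numbers were not always called active; many hits fall short of the cut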
# PABP polyA inh = PABP poly(A) RNA binding inhibitors, primary screen, biochemical, fluorescence polarization, uHTS. inhibition, % at 35 µM. hit rate 1% among 290,000;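 active = 50% or more with normal probe brightness, or confirmed in later tests; about a fifth of its hits are not listed in these tables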;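 also: calls also rest on retests at 20 µM and on dose response follow-up; controls were probe without protein and protein plus probe with vehicle; some compounds called inactive have numbers as strong as hits; many hits fall short of the cut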
# Target sequence (P11940 whole entry, looked up): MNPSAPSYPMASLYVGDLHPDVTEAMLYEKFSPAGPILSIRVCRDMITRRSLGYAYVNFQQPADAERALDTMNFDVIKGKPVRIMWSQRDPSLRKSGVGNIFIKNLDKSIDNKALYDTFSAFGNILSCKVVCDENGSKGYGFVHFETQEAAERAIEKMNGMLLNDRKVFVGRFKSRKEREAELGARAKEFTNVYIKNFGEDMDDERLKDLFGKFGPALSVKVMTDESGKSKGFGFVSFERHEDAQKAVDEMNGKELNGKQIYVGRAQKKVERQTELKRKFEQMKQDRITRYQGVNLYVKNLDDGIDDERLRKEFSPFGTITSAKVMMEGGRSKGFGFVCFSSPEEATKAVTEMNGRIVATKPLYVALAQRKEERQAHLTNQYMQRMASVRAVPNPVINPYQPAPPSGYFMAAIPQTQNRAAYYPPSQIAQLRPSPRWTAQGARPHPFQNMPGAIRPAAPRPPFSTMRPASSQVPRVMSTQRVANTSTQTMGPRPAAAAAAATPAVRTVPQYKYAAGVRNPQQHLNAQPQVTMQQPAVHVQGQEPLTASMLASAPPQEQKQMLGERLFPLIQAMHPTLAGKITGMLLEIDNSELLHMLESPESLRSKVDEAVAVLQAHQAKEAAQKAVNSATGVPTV
# Yeast UUG start = modulators of yeast start codon fidelity, primary screen, whole organism, S. cerevisiae, single point, plate reader; S. cerevisiae UUG-firefly luciferase reporter, luminescence/redox ratio; activity score, % at 18.7 µM; hit rate 0.13% among 350,000; AID 602363, 2012;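 active = replicate mean at a twofold rise or more, about +100% in these data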;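 also: firefly luciferase made from a UUG start codon reports start codon fidelity; reporter light over untreated wells divided by growth signal over untreated wells; some hits fall short of that in this replicate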
# MT1-MMP act inh RFP = second read-out of MT1-MMP act inh, no call of its own (marks repeat the call); RFP signal change, %; measured here: RFP expression control read;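 0 = vehicle wells; hits needed this value within 50% of zero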
# * hit, by the source's call; i = inactive; . = no result given; + = active, no number.
1. O=C(COc1ccccc1)N1CCCCCCC1
2. CCOC(=O)CSCc1c(C#N)c2ccccc2n1C
3. Cc1cc(-c2ccc(C)c(S(=O)(=O)N3CCN(c4ccc([N+](=O)[O-])cc4)CC3)c2)on1
4. O=S1(=O)CCN(OCc2ccc(Cl)cc2)CC1
5. COCCOC(=O)c1c(C)n(C)c2ccc(OC(=O)c3ccccc3OC)cc12
6. COc1cccc(NC(=O)N(C2CCCCC2)C(C)c2cccs2)c1 (stereo unspecified)
7. Cc1c(N=C2NC(=O)/C(=C/c3cccc([N+](=O)[O-])c3)S2)c(=O)n(-c2ccccc2)n1C
8. CCCc1nc(Nc2nc3ccccc3o2)nc(C)c1C(=O)OCC

screen / no. | 1 | 2 | 3 | 4 | 5 | 6 | 7 | 8
CSC inhib | -1 | -16 | 21 | -15 | -19 | 6 | 4 | -4
Rce1 inh | i | . | i | i | i | i | i | .
MT1-MMP act inh | -2 | 2 | -7 | 0 | 3 | 4 | . | 3
MT1-MMP act inh RFP | 1 | 1 | -33 | 2 | 1 | 5 | . | -9
HIV Env fusion | -38 | . | 28 | -3 | 0 | -44 | . | -196
eIF4H FP inh | -2 | 2 | -14 | 4 | 3 | -9 | 2 | -13
PABP polyA inh | 3 | 4 | 9 | 5 | -3 | 5 | 12 | -8
Yeast UUG start | 0 | -19 | 3 | . | 0 | -11 | . | -6

9. COc1cc(NS(=O)(=O)c2ccc(NC(=S)NC(=O)c3ccco3)cc2)ncn1
10. CN1CCN(C(=O)/C(=C\c2cccs2)NC(=O)c2ccccc2)CC1
11. O=C(CN1C(=O)CSCC1=O)NCc1ccc(F)cc1
12. N#C/C(=C\c1ccccc1Cl)C(=O)Nc1ccccn1
13. CCn1ccnc1CN(C)Cc1nc(-c2cccc(Cl)c2)no1
14. COc1ccc(N2CCN(C(=O)C3CCCN(c4ncnc5c4nc4n5CCCCC4)C3)CC2)cc1 (stereo unspecified)
15. CCOC(=O)Nc1ccc(=O)n(Cc2c(Cl)cccc2Cl)c1
16. N/C(Cc1ccc([N+](=O)[O-])cc1)=N\OC(=O)c1ccc2ccccc2c1

screen / no. | 9 | 10 | 11 | 12 | 13 | 14 | 15 | 16
CSC inhib | 2 | . | -9 | 0 | 10 | 1 | -2 | 1
Rce1 inh | i | i | . | i | i | i | i | +
MT1-MMP act inh | 13 | -3 | 0 | 1 | 0 | 5 | -8 | -1
MT1-MMP act inh RFP | 4 | 2 | 1 | 5 | 3 | -8 | 5 | -4
HIV Env fusion | 8 | 19 | 2 | 11 | -13 | 24 | -90 | .
eIF4H FP inh | -6 | -4 | 11 | -4 | 1 | 8 | 2 | -8
PABP polyA inh | -1 | 0 | -6 | 7 | -6 | 18 | -5 | -3
Yeast UUG start | -18 | -12 | -13 | -18 | . | 16 | -12 | .

# Reformatted: 15 of the compounds above
no.	Structure	CSC inhib	Rce1 inh	MT1-MMP act inh	MT1-MMP act inh RFP	HIV Env fusion	eIF4H FP inh	PABP polyA inh	Yeast UUG start
2	CCOC(=O)CSCc1c(C#N)c2ccccc2n1C	-16	.	2	1	.	2	4	-19
3	Cc1cc(-c2ccc(C)c(S(=O)(=O)N3CCN(c4ccc([N+](=O)[O-])cc4)CC3)c2)on1	21	i	-7	-33	28	-14	9	3
4	O=S1(=O)CCN(OCc2ccc(Cl)cc2)CC1	-15	i	0	2	-3	4	5	.
5	COCCOC(=O)c1c(C)n(C)c2ccc(OC(=O)c3ccccc3OC)cc12	-19	i	3	1	0	3	-3	0
6	COc1cccc(NC(=O)N(C2CCCCC2)C(C)c2cccs2)c1 (stereo unspecified)	6	i	4	5	-44	-9	5	-11
7	Cc1c(N=C2NC(=O)/C(=C/c3cccc([N+](=O)[O-])c3)S2)c(=O)n(-c2ccccc2)n1C	4	i	.	.	.	2	12	.
8	CCCc1nc(Nc2nc3ccccc3o2)nc(C)c1C(=O)OCC	-4	.	3	-9	-196	-13	-8	-6
9	COc1cc(NS(=O)(=O)c2ccc(NC(=S)NC(=O)c3ccco3)cc2)ncn1	2	i	13	4	8	-6	-1	-18
10	CN1CCN(C(=O)/C(=C\c2cccs2)NC(=O)c2ccccc2)CC1	.	i	-3	2	19	-4	0	-12
11	O=C(CN1C(=O)CSCC1=O)NCc1ccc(F)cc1	-9	.	0	1	2	11	-6	-13
12	N#C/C(=C\c1ccccc1Cl)C(=O)Nc1ccccn1	0	i	1	5	11	-4	7	-18
13	CCn1ccnc1CN(C)Cc1nc(-c2cccc(Cl)c2)no1	10	i	0	3	-13	1	-6	.
14	COc1ccc(N2CCN(C(=O)C3CCCN(c4ncnc5c4nc4n5CCCCC4)C3)CC2)cc1 (stereo unspecified)	1	i	5	-8	24	8	18	16
15	CCOC(=O)Nc1ccc(=O)n(Cc2c(Cl)cccc2Cl)c1	-2	i	-8	5	-90	2	-5	-12
16	N/C(Cc1ccc([N+](=O)[O-])cc1)=N\OC(=O)c1ccc2ccccc2c1	1	+	-1	-4	.	-8	-3	.

# (next part)
17. CCOc1ccc(NC(=O)C(CC(=O)O)Cc2ccc(C)cc2)cc1 (stereo unspecified)
18. Cc1cc(NC(=O)COC(=O)C2CC(=O)N(c3cccc(C)c3C)C2)no1 (stereo unspecified)
19. Cc1ccnc(NC(=O)C(C)N2C(=O)c3ccccc3C2=O)c1 (stereo unspecified)
20. COCCn1c(=N)c(S(=O)(=O)c2ccc(F)cc2)cc2c(=O)n3cccc(C)c3nc21
21. COc1ccccc1NC(=O)N1CCCC1C(=O)NCCc1ccccc1 (stereo unspecified)
22. COc1cc(CNC(=O)c2cc(-c3cc(C)cc(F)c3)n[nH]2)cc(OC)c1
23. Cc1ccc(C2C(C(=O)c3sc(C)nc3C)=C(O)C(=O)N2CCN2CCOCC2)o1 (stereo unspecified)
24. COC(=O)CC1(c2ccc(OC)cc2)C(=O)c2ccccc2C1=O

screen / no. | 17 | 18 | 19 | 20 | 21 | 22 | 23 | 24
CSC inhib | -3 | -12 | -17 | 2 | -15 | . | . | 19
Rce1 inh | i | i | i | i | i | . | i | i
MT1-MMP act inh | 2 | -2 | -8 | -3 | -2 | 0 | 4 | 1
MT1-MMP act inh RFP | 2 | 0 | 0 | -2 | 2 | 3 | 5 | 4
HIV Env fusion | -1 | -10 | 16 | -3 | 4 | 3 | . | 9
eIF4H FP inh | -9 | -4 | -3 | 1 | -4 | . | 2 | -11
PABP polyA inh | 6 | -1 | 0 | 13 | 12 | . | 8 | 8
Yeast UUG start | -5 | -14 | . | -8 | -13 | -7 | -1 | -9

25. O=S(=O)(Nc1ccc(Cl)cc1)c1cccc2nsnc12
26. CCn1c(=O)c(CCC(=O)NCC2CCCO2)c(C)c2c(C)nn(-c3ccc(C)cc3)c21 (stereo unspecified)
27. CCN(CC)S(=O)(=O)c1ccc2c(c1)nc(SCC(=O)NC1CC1)n2-c1ccccc1OC
28. CCOc1ccc(-c2nnc(NC3=NCCCCC3)o2)cc1
29. O=C(NCC1CCCO1)c1ccc(NC(=O)c2cccc([N+](=O)[O-])c2)cc1 (stereo unspecified)
30. COCCN(C(=O)CSCc1ccccc1)c1c(N)n(Cc2ccccc2)c(=O)[nH]c1=O
31. Cc1cc(NC(=O)CCC(=O)N(CC(=O)NC2CCCC2)c2cccc(F)c2)no1
32. O=C1C2C(c3ccccc3)C=CC(c3ccccc3)C2C(=O)N1c1cccnc1 (stereo unspecified)

screen / no. | 25 | 26 | 27 | 28 | 29 | 30 | 31 | 32
CSC inhib | 5 | 6 | 2 | 5 | -4 | -17 | . | -4
Rce1 inh | i | i | i | i | i | i | i | i
MT1-MMP act inh | 1 | -10 | 1 | 3 | -7 | -2 | 0 | 1
MT1-MMP act inh RFP | 0 | -12 | -1 | -1 | 0 | 5 | 4 | 3
HIV Env fusion | -4 | 9 | . | . | 13 | 1 | 2 | -20
eIF4H FP inh | -5 | -10 | 3 | -19 | -14 | -2 | -10 | 0
PABP polyA inh | 6 | 8 | -4 | -2 | -7 | 0 | 11 | 19
Yeast UUG start | 8 | -18 | 24 | -13 | -6 | 1 | . | .

# The list goes on:
# Below each compound – CSC inhib	Rce1 inh	MT1-MMP act inh	MT1-MMP act inh RFP	HIV Env fusion	eIF4H FP inh	PABP polyA inh	Yeast UUG start
33	CCn1c(COc2cccc(OC)c2)nnc1SCC(=O)Nc1cc(OC)ccc1OC
 : -25	i	4	-4	7	-4	0	-15
34	Cc1ncc([N+](=O)[O-])n1Cc1ccc(Br)cc1
 : -3	i	3	4	-4	0	4	.
35	Cc1ccc(-n2c(-c3ccncc3)n[nH]c2=S)cc1
 : -12	i	1	7	14	0	-8	.
36	CN(C)CCn1c2c(c(SCC(=O)NCc3ccccc3)nc1=O)CCCC2
 : -10	i	1	3	2	.	.	-10
37	Cc1cccc(C(C)(C)C)c1OCCn1ccnc1
 : 2	i	-5	-7	-9	10	-5	.
38	C=CCn1c(=NC(=O)c2ccco2)sc2cc(C(=O)OCC)ccc21
 : -14	i	2	0	2	-3	-1	-3
39	COc1ccc(-c2nn[nH]n2)cc1OC
 : -16	i	3	4	.	-7	-2	-12
40	CC(C(=O)NCC(=O)Nc1ccc(F)c(F)c1F)N1CCN(Cc2ccc(C#N)cc2)CC1 (stereo unspecified)
 : .	.	2	1	4	.	.	10
41	CCN(CC)C(=O)C(=O)c1cccn1-c1ccccc1C#N
 : 9	i	0	4	-44	-7	0	-17
42	COc1ccc(C(=O)NCc2ccc(F)cc2)cc1S(=O)(=O)N1CCCC1
 : .	.	3	0	0	.	.	-2
43	Cc1oc(-c2ccc(F)cc2F)nc1CN1CCN(C(=O)c2ccco2)CC1
 : .	.	3	-3	16	.	.	-9
44	COc1ccc(C(C)NC(=O)c2ccc(Cl)cc2)cc1OC (stereo unspecified)
 : -2	i	5	-1	3	8	-9	.
45	CCOC(=O)c1ccc(NC(=O)CCc2nc(-c3cccc(C)c3)no2)cc1
 : 6	i	-1	-17	14	-3	-6	-2
46	COCC(C)n1c(COc2ccccc2F)nnc1SCC(=O)c1c(N)n(C)c(=O)n(C)c1=O (stereo unspecified)
 : .	i	-1	-3	14	2	-9	.
47	CN(C)C(=O)[C@H]1C[C@H]1[C@@H](O)[C@H](CO)NC(=O)[C@H](COCc1ccccc1)NC(=O)OC(C)(C)C
 : -6	i	1	4	-13	8	-9	-7
48	CCc1noc(C)c1C(=O)N1CCN(S(=O)(=O)c2c(C)cc(C)cc2C)CC1
 : .	.	1	-1	-2	.	.	9
49	CC(=O)Nc1ccc(C(=O)OCc2ccccc2Cl)cc1
 : 8	i	0	6	3	4	8	.
50	COc1ccc(-c2cn3c(C)c(C(=O)Nc4cccc(NC(C)=O)c4)sc3n2)cc1
 : 3	i	9	-14	71*	10	-2	-14
51	c1ccc2c(NCCc3c[nH]c4ccccc34)c3ccccc3nc2c1
 : 87*	i	5	5	-13	-12	-11	-18
52	COc1cc(-c2cc3nc(NCCOc4ccccc4)ccn3n2)cc(OC)c1OC
 : .	.	18	-7	-27	.	.	2
53	CCCOc1ccc(N2C(=O)CC(SC(=NCC)Nc3cccc(F)c3)C2=O)cc1 (stereo unspecified)
 : 24	i	1	3	-52	-2	-6	-9
54	O=C(Oc1ccc(C(=S)N2CCOCC2)cc1Br)c1ccccc1F
 : -11	i	14	3	1	-10	-4	-22

# Compounds as they come; any-hit rate near 3%.
